Six1-Eya2 inh = inhibitors of human Six1/Eya2 interaction. Q15475+O00167. AlphaScreen GST-Six1/His-Eya2 binding, biochemical; stronger effect = lower value; control for the full effect not named in the record. activity change, % (test concentration not listed). hit rate 0.56% among 360,000. AID 651725; in the data active = activity change below about -65%; inconclusive = about -30% to -65%; inactive = above about -30%; further: on the % scale 0 is the no-effect control and ±100 the full control effect; compound concentration not given in the record
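Compounds are tested against tagged Six1 and Eya2 proteins bridged by glutathione donor and nickel acceptor beads; after a one-hour incubation at 37 °C without light, AlphaScreen emission is recorded.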
D2 PAM = positive allosteric modulators of human D2 dopamine receptor; P14416; DiscoveRx D2 beta-arrestin cells, luminescence, 90 min; 100% = 57 uM dopamine signal; potentiation, % (no concentration beside the values); hit rate 0.23% among 360,000; AID 624464; active = potentiation of 50% or more; inconclusive = 30% to 50%; inactive = 30% or less;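 further: compound concentration not given in the record; tested on top of an EC20 dose of dopamine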
Target sequence (P14416 whole entry, looked up): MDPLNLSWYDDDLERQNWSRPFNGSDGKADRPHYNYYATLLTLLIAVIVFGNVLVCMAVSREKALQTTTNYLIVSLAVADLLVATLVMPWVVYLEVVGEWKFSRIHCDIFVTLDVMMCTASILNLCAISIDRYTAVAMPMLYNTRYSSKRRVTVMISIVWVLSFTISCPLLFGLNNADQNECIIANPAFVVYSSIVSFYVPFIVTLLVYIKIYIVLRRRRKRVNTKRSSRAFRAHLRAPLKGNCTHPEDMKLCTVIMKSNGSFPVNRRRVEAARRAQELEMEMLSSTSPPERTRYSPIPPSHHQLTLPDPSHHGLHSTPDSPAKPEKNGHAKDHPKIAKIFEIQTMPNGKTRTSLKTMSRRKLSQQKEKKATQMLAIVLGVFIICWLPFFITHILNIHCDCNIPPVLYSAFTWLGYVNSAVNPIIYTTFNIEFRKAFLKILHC
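PathHunter beta-arrestin assay in DiscoveRx D2 cells. Compounds were added with an EC20 of dopamine (50 nM final) for 90 min at 37 deg C. Luminescence was read 1 h after detection reagent, with 57 uM dopamine as the EC100 control.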
TRPV1 PAM = enhances activation of the human vanilloid receptor TRPV1; AID 540277; Q8NER1; potentiation, % at 8.33 µM; TRPV1-expressing cells, Fluo-8 calcium influx, capsaicin EC20 potentiation; host cell line not named in the record; control for the full effect not named in the record; hit rate 0.02% among 320,000; active means potentiation above 80%; inconclusive means 30% to 80%; inactive means below 30%; further: 0% is about no effect
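Fluo-8 calcium influx in TRPV1-expressing cells, kinetic read (ex 480/em 520 nm). Compound added and read 3 min for agonist activity, followed by capsaicin at EC20 final and 2 min further read for enhancement.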
Sfp inh = Sfp phosphopantetheinyl transferase inhibition. Q9F4F7. Biochemical Sfp PPTase activity, qHTS. Potency, µM, without a hit: max response, negative = inhibition, hits mostly inhibitors. hit rate 3.5% among 310,000. AID 1490; active means well fitted inhibition curve with a large enough effect; inconclusive means small, poorly fitted or top-dose-only effect, or another doubt; inactive means no such curve, though single readings can be large or run the other way;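 further: the enzyme is Sfp with the accession as filed and its product quenches rhodamine fluorescence; potency means the concentration at half of the fitted maximal effect; 0% = enzyme reaction without inhibitor and -100% = no enzyme wells; top concentration of the series not given in the record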
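Fluorescence-quenching assay with 15 nM Sfp, 5 uM rhodamine-CoA and 12.5 uM BHQ-2-labelled ybbR peptide in pH 7.6 Hepes/MgCl2 buffer. Enzyme was pre-incubated with compound for 15 min at room temperature. Rate was taken from the 30-min fluorescence change (525/598 nm).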
CtBP-E1A blk = blocks the CtBP interaction with E1A | activity change, % (test concentration not listed) | hit rate 0.49% among 340,000 | AlphaScreen GST-E1A/His-CtBP binding, 1536-well; stronger effect = lower value; control for the full effect not named in the record; in the data active means activity change below about -65%; inconclusive means about -30% to -65%; inactive means above about -30%; further: on the % scale 0 is the no-effect control and ±100 the full control effect; compound concentration not given in the record
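Protein mix (5X: 125 nM each GST-E1A, His-CtBP) was incubated with pinned compound 2 h at 37 deg C in dark, in 50 mM Tris pH 8.0 buffer with 300 mM NaCl. Glutathione donor and nickel acceptor beads followed; AlphaScreen signal read after 1 h.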
PINK1 modulator = modulators of PINK1 expression; PINK1 immunofluorescence, high-content cytometry, 24 h; Potency, µM (doses to about 76.6 µM), for the others: top-dose activation (PINK1 increase), usual class: activators; hit rate 0.2% among 410,000; active = well fitted activation curve with a large enough effect; inconclusive = small, poorly fitted or top-dose-only effect; inactive = flat fitted curve, though single readings scatter; cell line not stated here;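 further: potency means the concentration at half of the fitted maximal effect; % of control where 0% means no effect; nearly all actives have a fitted effect of over 65% in size; a mitochondrial uncoupler was the plate control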
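Measures PINK1 amount and localization on or inside mitochondria by immunofluorescence. Stable cells get compounds at 5 concentrations for 24 hours before fixation and staining; CCCP controls included.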
D2 agonist = activates the human D2 dopamine receptor; P14416; DiscoveRx PathHunter D2 beta-arrestin, luminescence, 90 min; 100% = 57 uM dopamine signal; activation, % (no concentration beside the values); hit rate 0.084% among 360,000; AID 624465; in the data active = activation above about 40%; inconclusive = about 15% to 40%; inactive = below about 15%; further: compound concentration not given in the record; the text of the record calls up to 30% inactive
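DiscoveRx PathHunter D2 beta-arrestin cells (2,100/well) attached overnight, then compound-stimulated 90 min at 37 C in HBSS/10 mM HEPES/0.1% Tween-20 buffer; beta-galactosidase complementation read by luminescence after 1 h at ambient temperature. Dopamine 57 uM final (EC100) as control.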
* marks the source's active call; other numbers are inactive results; ? = inconclusive; . = no result given; [ ] = dose if it differs, or a comment. Compounds were not picked by outcome. About 3.7% of those tested had a hit in this group.

Results follow in this order: Six1-Eya2 inh	D2 PAM	TRPV1 PAM	Sfp inh	CtBP-E1A blk	PINK1 modulator	D2 agonist
(1) CC(=O)c1ccc(NCCC(=O)c2ccccc2)cc1
    4	-8	8	15%	-1	3.4%	-2.8
(2) COc1ccccc1N(C)S(=O)(=O)c1ccc(C(=O)N(C)Cc2ccc(OC(F)F)cc2)cc1
    6	-6	-4	.	-10	2.2%	-6.1
(3) O=[N+]([O-])c1sccc1CS(=O)(=O)c1ccccc1
    3	4	21	6%	-3	1.4%	5.2
(4) CC(=O)Nc1ccc(Oc2sc(C(=O)c3ccccc3)c(N)c2C#N)cc1
    -12	-10	-32	-5%	4	-1.8%	-3.0
(5) Cc1c(C(C)NC(=O)Nc2ccc(F)cc2F)cnn1C (centres undefined)
    2	-24	3	-1%	-1	5.8%[38.3 µM]	-3.4
(6) CCC(C(=O)NCc1ccc(F)cc1)N(CCc1ccccc1)C(=O)c1snc(C(N)=O)c1N (centres undefined)
    3	-5	10	6%	0	0.1%	-1.0
(7) CCN(CC)S(=O)(=O)c1cc(NC(=O)CCc2c(C)noc2C)ccc1C
    1	-4	.	.	5	0.0%	0.2
(8) Cc1ccc(C(=O)N2CCN(c3ccccc3F)CC2)cc1S(=O)(=O)N1CCOCC1
    1	-3	-9	12%	-10	-1.3%	4.7
(9) O=C(NC1CCCC1)c1ccc2nc[nH]c2c1
    -6	-8	11	7%	-7	3.8%	-0.9
(10) COc1cccc(C(=O)N[C@@H](C)C(=O)N2CCC3(CC2)NCCc2[nH]cnc23)c1
    2	-14	3	0%	-11	-0.3%	-8.7
(11) Cc1cc(NC(=O)COC(=O)c2cc([N+](=O)[O-])ccc2N2CCOCC2)ccc1Br
    -5	-11	2	.	-6	3.6%	-3.0
(12) CC(NC(=O)C(c1ccccc1)c1ccccc1)C(=O)O (centres undefined)
    -2	-11	11	3%	6	.	-0.6
(13) CN(C(=O)C1CCN(S(=O)(=O)c2ccccc2)CC1)c1c(N)n(Cc2ccccc2)c(=O)[nH]c1=O
    2	-12	-7	.	10	-0.9%	-5.2
(14) CCOc1cc(S(=O)(=O)Nc2ncn[nH]2)ccc1Br
    3	-2	3	-2%	9	2.8%	0.0
(15) Cc1cc(=O)[nH]c(SCC(=O)Nc2nc(-c3ccccc3)c(-c3ccccc3)o2)n1
    3	-9	11	-5%	2	1.9%	-9.5
(16) Cc1oc(-c2ccc(Cl)cc2)nc1CS(=O)CC(=O)NCc1cccs1 (centres undefined)
    0	-5	-1	-15%	0	1.8%	-5.2
(17) O=C1OCC(c2ccccc2)=C1c1ccccc1
    11	-1	-16	10%	4	-1.8%	-6.2
(18) O=c1cc(Cn2ccnc2)c2cc(O)ccc2o1
    0	-5	1	6%	8	0.1%	-4.1
(19) COCCNC(=O)Cn1nc(-c2ccc(C)cc2)ccc1=O
    9	-7	-11	0%	-2	-1.4%	-6.7
(20) CCc1sc(NC(C)=O)nc1-c1ccccc1
    8	-7	7	0%	.	1.6%	-2.9
(21) Cc1c(Cl)cccc1NC(=O)Nc1ccc(C(=O)N2CCCC2)cc1
    12	-14	7	19%	2	-0.2%	-0.6
(22) CCCCn1nnc(NC(=O)c2ccc([N+](=O)[O-])cc2Cl)n1
    1	13	-8	8%	4	1.6%	10
(23) O=C(CSc1ccc([N+](=O)[O-])cn1)Nc1ccc2c(c1)OCCO2
    3	-6	-10	-6%	.	-1.2%	13
(24) O=C(OCc1ccccc1)/C(=C/c1ccc(Cl)cc1)NC(=O)c1ccccc1Cl
    1	-20	-14	10%	-2	15%	-5.4
(25) COC(=O)c1ccc(S(=O)(=O)NCc2ccc(S(N)(=O)=O)cc2)o1
    8	-5	-10	8%	2	0.4%	-2.5
(26) COc1cc(Cc2nccc3cc(OC)c(OC)cc23)c(S(=O)(=O)O)cc1OC
    -3	8	0	2%	0	-0.6%	4.4
(27) Cc1ccc(S(=O)(=O)N2CCN(C(=O)c3cccs3)CC2)cc1C
    1	-8	4	1%	1	0.8%	-3.3
(28) COC(=O)CCCNC(=O)c1ccc2[nH]c(C)c(C)c2c1
    -7	-3	-2	14%	-20	1.2%	-4.8
(29) O=C(Nc1ccc(NC(=O)c2ccc(Cl)cc2Cl)cc1)c1ccc2c(c1)OCO2
    -3	-1	1	-2%	6	12%	-2.1
(30) N#C/C(=C\c1cn(CC(=O)N2CCCCC2)c2ccccc12)C(=O)NCc1ccc2c(c1)OCO2
    -1	-2	8	-3%	-15	0.1%	-7.0

(continued)
Results follow in this order: Six1-Eya2 inh	D2 PAM	TRPV1 PAM	Sfp inh	CtBP-E1A blk	PINK1 modulator	D2 agonist
(31) Cc1cc(/C=C(/C#N)C(=O)O)c(C)n1-c1cccc2ccccc12
    13	-3	2	-1%	0	-1.1%	1.0
(32) Oc1ccc(N=Cc2ccc(OCc3ccccc3)cc2)cc1
    -2	4	25	?	.	15%	8.0
(33) C=CCn1c(O)c(CN2CCN(Cc3ccccc3)CC2)c(C)c(C#N)c1=O
    -13	12	-11	-29%	-2	1.2%	7.7
(34) COCCNC(=O)CCCn1c(=O)c2cc(OC)c(OC)cc2n(CC(=O)NCCC2=CCCCC2)c1=O
    -1	-7	-1	14%	4	-1.2%	-2.8
(35) CCC1CCC(C(=O)NNC(=O)OC)CC1 (centres undefined)
    1	1	-1	2%	1	-1.1%	-1.2
(36) O=C(NCCc1c[nH]c2ccccc12)C1Cc2ccccc2CN1C(=O)c1ccco1 (centres undefined)
    -1	3	17	2%	-9	-0.8%	0.0
(37) CCC(C)(C)NC(=O)CN(C(=O)CNS(=O)(=O)c1ccc(C)cc1)c1ccc2c(c1)OCCO2
    11	-7	-14	-1%	2	-2.2%	-2.3
(38) COC(=O)C1(C)CCc2cc(OC)ccc2C1=O (centres undefined)
    6	-3	16	21%	13	0.9%	3.3
(39) CCc1ccc(-c2cc3c(=O)n(CC(=O)NCCCN4CCC(Cc5ccccc5)CC4)nc(C)n3n2)cc1
    0	-20	?	-16%	.	2.2%	1.9
(40) Cn1c(N2CCN(S(=O)(=O)c3ccc(Cl)cc3)CC2)nc2ccccc21
    -22	-3	3	9%	1	2.3%	0.4
(41) O=C(C[C@@H]1C/C=C\C[C@H](NC(=O)OCC2c3ccccc3-c3ccccc32)C(=O)OC[C@H]2CCCN2C1=O)N[C@@H](CO)Cc1ccccc1
    -1	-7	.	.	-1	-0.8%	-2.0
(42) O=C(NC(=O)c1ccccc1)Nc1ccc(-c2cnco2)cc1
    -12	-2	10	7%	1	14%	-3.5
(43) O=C(NCCC(c1ccccc1)c1ccccc1)c1cnccn1
    11	1	-13	-2%	1	0.7%	-1.6
(44) O=C(Nc1ccccc1)Nc1ccccc1C(=O)NCC1CC1
    -16	-21	?	15%	.	1.6%	-7.3
(45) COc1ccc(CNC(=O)c2ccc3c(c2)NC(=O)C(C)S3)cc1 (centres undefined)
    9	-7	0	22µM*	-2	0.1%	0.0
(46) Brc1cc(Cc2nnc(-c3ccccc3)o2)c(Br)s1
    47	1	-1	-14%	20	-1.0%	2.5
(47) O=C(c1ccccc1)c1ccc(C(=O)O)c(C(=O)O)c1
    -9	-12	.	.	-3	0.3%	-6.8
(48) CC[C@H](C)[C@H](NC(N)=O)C(=O)Nc1ccc(S(=O)(=O)NC(C)C)cc1
    24	1	-5	9%	45	-1.4%	1.6
(49) O=C(NN=C1CCCC1)c1ccccc1O
    -4	-3	18	-3%	-1	0.6%	-1.8
(50) Cn1nnnc1SCC(=O)NCc1cccs1
    10	-9	18	17%	3	-0.1%	-1.6
(51) CCOC(=O)c1c(NC(=O)COC(=O)CCNS(=O)(=O)c2ccccc2)sc(C(=O)NC)c1C
    -4	-7	.	.	0	4.7%	-1.2
(52) CN(C(=O)COC(=O)C1CCN(S(=O)(=O)c2c(Cl)cccc2Cl)CC1)C1CCS(=O)(=O)C1 (centres undefined)
    0	-17	2	.	10	0.7%	-5.5
(53) COc1cccc(CNC(=O)c2ccc(C)c(S(=O)(=O)N3CCCCC3)c2)c1
    -7	-8	1	.	1	-0.6%	6.9
(54) O=C(CSc1ccccc1C(=O)O)c1ccccc1
    2	-6	-2	13%	4	-0.8%	3.4
(55) CC1CCN(CCCNC(=O)C2CCN(S(=O)(=O)N3CCC4(CC3)OCCO4)CC2)CC1
    1	-11	9	5%	1	3.1%	4.0
(56) CC(/C=C/C=C/c1ccccc1)=N/NC(=O)c1ccc2c(c1)OCCO2
    5	-10	.	10%	-2	7.0%	-4.6
(57) CNCCOc1ccccc1OC(C)C
    1	-19	20	-10%	9	-0.2%	-1.0
(58) O=C(NC(C(=O)c1ccccc1)N1CCCCCC1)c1ccco1 (centres undefined)
    -3	-21	9	10%	0	2.0%	-2.6
(59) CCCC1CCc2c(c3ccccc3[nH]c2=O)O1 (centres undefined)
    -1	17	0	0%	1	-0.9%	-2.8
(60) CCOC(=O)c1cccc(NC(=O)/C(=C\c2ccccc2)NC(=O)c2ccccc2Cl)c1
    2	-12	-4	20%	4	.	-2.4

Limited to Six1-Eya2 inh and PINK1 modulator, for 3 of the compounds above:
no. | structure | Six1-Eya2 inh | PINK1 modulator
6 | CCC(C(=O)NCc1ccc(F)cc1)N(CCc1ccccc1)C(=O)c1snc(C(N)=O)c1N (centres undefined) | 3 | 0.1%
7 | CCN(CC)S(=O)(=O)c1cc(NC(=O)CCc2c(C)noc2C)ccc1C | 1 | 0.0%
8 | Cc1ccc(C(=O)N2CCN(c3ccccc3F)CC2)cc1S(=O)(=O)N1CCOCC1 | 1 | -1.3%

The results go on:
Results follow in this order: Six1-Eya2 inh	D2 PAM	TRPV1 PAM	Sfp inh	CtBP-E1A blk	PINK1 modulator	D2 agonist
(61) CCn1cc(C(=O)NCc2ccco2)c(=O)c2cc(S(=O)(=O)N3CC(C)CC(C)C3)ccc21 (centres undefined)
    -1	-11	4	-17%	1	-0.3%	-1.7
(62) C[C@H]1CN(c2ccccc2)C(=O)[C@@H]1CC(=O)Nc1ccc(Br)cc1
    0	-9	.	.	-6	0.1%	-6.7
(63) COc1cccc(Cn2nc3c4cc(F)ccc4n(Cc4ccc(F)cc4)cc-3c2=O)c1
    -4	-4	11	15%	5	6.0%	-0.1
(64) CCN(C(=O)COC(=O)/C=C/c1ccccc1[N+](=O)[O-])C1CCS(=O)(=O)C1 (centres undefined)
    -1	4	12	20%	-2	0.0%	-1.2
(65) O=C(CCNS(=O)(=O)c1ccc2c(c1)CCC(=O)N2)Nc1ccc(F)c(F)c1
    2	-2	7	12%	2	0.6%	11
(66) CC1(C(=O)Nc2cnc3ccccc3c2)CCN1C(=O)c1ccccc1CCc1ccccc1 (centres undefined)
    -10	0	.	.	-15	1.1%	3.3

High-throughput results (PubChem)
